# VDR inhibitor: blocks the human vitamin D receptor | P11473 | VDR-SRC2-3 peptide fluorescence polarization, 2 h | Potency, µM, for inactives: max response, negative = inhibition, usual class: inhibitors | 400,000 compounds, 0.93% hits; active = well fitted inhibition curve with a large enough effect; inconclusive = small, poorly fitted or top-dose-only effect, or another doubt; inactive = no such curve, though single readings can be large or run the other way; note: series mostly up to about 120 µM
# Target sequence (P11473 whole entry, looked up): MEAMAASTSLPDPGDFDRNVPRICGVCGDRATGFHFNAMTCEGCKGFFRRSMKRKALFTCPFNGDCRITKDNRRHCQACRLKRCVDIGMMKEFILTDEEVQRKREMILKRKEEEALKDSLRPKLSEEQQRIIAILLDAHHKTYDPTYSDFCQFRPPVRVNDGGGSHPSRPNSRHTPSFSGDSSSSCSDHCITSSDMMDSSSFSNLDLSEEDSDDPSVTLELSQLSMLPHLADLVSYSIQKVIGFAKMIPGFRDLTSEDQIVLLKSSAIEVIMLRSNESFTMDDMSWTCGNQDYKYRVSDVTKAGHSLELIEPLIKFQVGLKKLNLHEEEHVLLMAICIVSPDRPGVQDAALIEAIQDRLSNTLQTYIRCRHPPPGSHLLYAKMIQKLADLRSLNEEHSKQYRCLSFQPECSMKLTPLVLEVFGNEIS
#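 VDR–SRC2-3 interaction, FP format. Cmpds 23 nl via pintool, brief spin, 2 h ambient incubation.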
# The depositor's hits bear a star; ? = inconclusive; & = joins results of further samples; [ ] = dose if it differs, or a comment. % is set by controls: 0 for no effect and ±100 for the full control effect; potency is the fitted concentration of half-maximal effect.
SMILES,VDR inhibitor
CC(C)Cc1nnc(NC(=O)CCC(=O)N2CCCCC2)s1,-5%
CCOC(=O)c1ccc2ncc(C(=O)OCC)c(Nc3ccc(N4CCOCC4)cc3)c2c1,-2%
Cc1sc2ncnc(SCC(=O)Nc3ccc(CN4CCCC4)cc3)c2c1C,-7%
CN1CCCC(OC(=O)c2cc(Br)ccc2Cl)C1 (stereo not given),-14%
CN(CCCC(=O)Nc1ccc(Br)cc1F)S(=O)(=O)c1ccccc1,-15%
CCCn1c(N)c(C(=O)CN(C)CC(=O)Nc2ccc(F)cc2)c(=O)[nH]c1=O,2%
CCOC(=O)C1CCN(C(=O)CSCc2nc(-c3ccc(OCC)cc3)oc2C)CC1,1%
Cc1nn(-c2ccccc2)c(Cl)c1/C=C1/C(=N)N2N=C(C(C)C)SC2=NC1=O,?
CC12CCC(=O)N1C(C(=O)Nc1ccc(Cl)c(Cl)c1)CS2 (stereo not given),10%
CCOC(=O)C1CCN(C(=O)CN2C(=O)CSc3ccc(S(=O)(=O)N4CCOCC4)cc32)CC1,6%
N#Cc1ccccc1OCC(=O)NCc1ccccc1CN1CCCC1,0%
O=C1CC(N2CCC(O)(c3ccc(Br)cc3)CC2)C(=O)N1c1ccc(Cl)cc1 (stereo not given),-14%
O=C(Nc1ccc(SC(F)F)cc1)c1cc(-c2ccncc2)nc2ccccc12,23%
CC(CCC(=O)O)C1CCC2C3CC(O)[C@@H]4CC(O)CC[C@]4(C)C3CC[C@@]12C (stereo not given in full),-20%
COc1ccc(OC)c(NC(=O)c2c(NCc3ccc(N(C)C)cc3)sc3c2CCCC3)c1,4%
CCOC(=O)c1ccc(NC(=O)CCc2nnc3ccc(N4CCN(C)CC4)nn23)cc1,-12%
CC(C)(C)NC(=O)COC(=O)c1ccc(F)cc1Cl,5%
COc1ccc(-c2csc3nc(-c4ccccc4C)oc(=O)c23)cc1OC,-21%
COCCNc1oc(Cc2cccc3ccccc23)nc1C#N,10%
CCOC(=O)C1CCN(S(=O)(=O)c2ccc(OCC)cc2)CC1,2%
Cc1ccc(NC(=O)c2sc(N)nc2-c2ccccc2)cc1C,-20%
Cc1ccc(Cl)cc1NC(=O)COC(=O)C1CC1,10%
COc1ccc(C(=O)Nc2ccccc2C(=O)N2CCN(c3ccccc3)CC2)cc1,-4%
CN(C)Cc1c(C(=O)N/N=C/c2cccc3ccccc23)nnn1-c1nonc1N,5%
Cc1c(NS(=O)(=O)c2cc(C(=O)NCCN(C)C)ccc2Cl)c(=O)n(-c2ccccc2)n1C,-7%
CCCCCCc1cc2cc(C(=O)Nc3ccccc3OC)c(=O)oc2cc1O,-16%
COCCNC(=O)C1CC(=O)N(c2ccc(F)c(Cl)c2)C1 (stereo not given),-15%
CC1(C)CC(=O)C=C(c2cccc(O)c2)C1,3%
C/C(=N/NC(=O)c1ccco1)c1ccc(NC(=O)c2ccc(F)cc2)cc1,-10%
CC1=NN(C(N)=S)C(=O)C1N=Nc1cccc(Cl)c1C (stereo not given),-6%
CC(C)C(OC(=O)c1cccs1)C(=O)NC1CCCCC1 (stereo not given),-17%
Clc1ccc2nc(CSc3ncn[nH]3)cn2c1,-10%
CCC12CC3CC(C1)CC(C(=O)Nc1nn[nH]n1)(C3)C2,5%
Cc1cc(NC(=O)c2ccc(NC(=O)C3CCCO3)cc2)ccc1Br (stereo not given),-7%
CCOC(=O)CN1C(=O)N[C@@H](CCc2ccccc2)C(C(C)=O)=C1C,-3%
Cc1ccc(NC(=O)c2cc(N3C(=O)C=CC3=O)ccc2Cl)cc1C,35µM*
CS(=O)(=O)N1CCN(c2ccccc2NC(=O)Nc2cccc(Cl)c2)CC1,-6%
COc1ccc(S(=O)(=O)Nc2cccc(NC(C)=O)c2)cc1,9%
O=C(NC(Cc1ccccc1)C(=O)O)/C(=C/c1ccc(F)cc1)NC(=O)c1ccccc1 (stereo not given),-8%
COc1ccccc1CNC(=O)C(NS(=O)(=O)c1cccc2nsnc12)C(C)C (stereo not given),-10%
CN(C)/C=C1\Oc2ccc3ccccc3c2C1=O,0%
O=C(c1cc(-c2ccccc2)nc2ccccc12)N1N=C(C(F)F)CC1(O)C(F)F (stereo not given),10%
CCN(c1ccccc1)S(=O)(=O)c1cc(NC(=O)CSc2n[nH]c(=O)[nH]c2=O)ccc1Cl,?
Cc1ccc(CN2CCSc3sccc3C2=O)cc1,-5%
Cn1cnnc1SC1c2cccc3cccc(c23)C1NS(=O)(=O)c1ccc(Cl)cc1 (stereo not given),-4%
CCN(c1cccc(C)c1)S(=O)(=O)c1ccc2c(c1)NC(=O)CCS2,-11%&9%
O=C(N1CCCCCC1)n1c(Cc2ccccc2)nc2ccccc21,-4%
CC1CCCN(CCCOc2ccc(Br)cc2Cl)C1 (stereo not given),-6%
Cc1nnc(C)n1N,28%
Cc1ccccc1NC(=O)Cn1c(=O)n(CCCCCC(=O)NCc2ccccc2Cl)c(=O)c2sccc21,12%
CCCN1CCN(C(=O)C2CCCN(c3ncnc4c3nc3n4CCCCC3)C2)CC1 (stereo not given),7%
Cc1ccc(NC(=O)CSc2nnc(C3CC3)n2CC2CCCO2)c(C)c1 (stereo not given),-5%
O=C(Cn1cc2c(n1)CCCC2)NCc1ccccn1,-17%
O=C(Cn1cc(/C=N/O)c2ccccc21)N1CCOCC1,-11%
CCOCCCNc1nc2c([nH]1)c(=O)n(C)c(=O)n2C,14%
COc1cccc(NC(=O)COc2coc(CN3CCN(c4ccccc4)CC3)cc2=O)c1,4%
CCCC(=O)Nc1cccc(NC(=O)c2ccc3c(c2)OCO3)c1,14%
CNC(=O)c1ccc(CN(C)CC(=O)Nc2ccccc2C(=O)NC2CC2)cc1,-9%
O=C(NN=C1CCCCCC1)c1ccncc1,-6%
Cc1cc(C)c(/C=C2\C(=O)Nc3ccccc32)[nH]1,-1%&-8%&7%

# Next section; the last 5 above are carried over.
SMILES,VDR inhibitor
COc1cccc(NC(=O)COc2coc(CN3CCN(c4ccccc4)CC3)cc2=O)c1,4%
CCCC(=O)Nc1cccc(NC(=O)c2ccc3c(c2)OCO3)c1,14%
CNC(=O)c1ccc(CN(C)CC(=O)Nc2ccccc2C(=O)NC2CC2)cc1,-9%
O=C(NN=C1CCCCCC1)c1ccncc1,-6%
Cc1cc(C)c(/C=C2\C(=O)Nc3ccccc32)[nH]1,-1%&-8%&7%
O=C(Cn1nnc(-c2ccc(F)cc2)n1)OCC(=O)c1ccccc1,-9%
COc1cccc(CNC(=O)CCn2c(=O)c3cccn3c3cccnc32)c1OC,7%
CC(C)CCN1C(=O)c2ccc(C(=O)Nc3cc(C(=O)O)cc(C(=O)O)c3)cc2C1=O,-7%
CS(=O)(=O)N1CCc2cc(C(=O)Nc3ccc(O)cc3)ccc21,5%
CC(C)(C)OC(=O)[C@H](NC(=O)OCc1ccccc1)c1ccccc1,18%
CCCNC(=O)CS(=O)Cc1nc(-c2ccccc2C)oc1C (stereo not given),5%
CCSc1nc2c(c(=O)[nH]1)C(c1cccnc1)C(C(=O)OC)=C(C)N2 (stereo not given),12%
Cn1c(=O)[nH]c(NCCc2ccc(O)cc2)c([N+](=O)[O-])c1=O,-3%
CCOC(=O)c1c(-c2ccccc2)csc1NC(=O)CSc1nncs1,16%
CSc1ncccc1C(=O)Nc1cccc(S(=O)(=O)N(C)c2ccccc2)c1,12%
Cc1ccc(Cl)c(NC(=O)Nc2csc3c2CCCC3)c1,2%
COc1ccc(N2CC(C(=O)N/N=C/c3c[nH]c4ccccc34)CC2=O)cc1 (stereo not given),3%
Oc1nc(-c2ccc(Br)cc2)n2ccncc12,-15%
CC1CC2(CC(C)(C(=O)CSc3nc4ccccc4s3)OC2=O)C(=O)O1 (stereo not given),21%
Cc1cc(C)n2nc(SC(C)C(=O)N(C)c3ccccc3)nc2n1 (stereo not given),-2%
O=C(O)CCC(=O)NCC1OCCc2ccccc21 (stereo not given),2%
CCN1CCN(C(=O)C(Cc2ccccc2)NC(=O)c2ccc(Cl)c(S(=O)(=O)N(C)C)c2)CC1 (stereo not given),-18%
O=[N+]([O-])c1cccc(NC(=S)N2CCc3ccccc32)c1,-4%
O=C(NC1CCCc2ccccc21)c1ccc(Cl)nc1 (stereo not given),20%
COc1ccc(Cl)cc1C(=O)Nc1ccc2oc(-c3ccc(C(C)(C)C)cc3)nc2c1,-8%
COc1cccc(/C=N/NC(=O)c2ccc3nc[nH]c3c2)c1,-15%
C/C(=N\O)c1cccc(Br)c1,8%
CCc1cc2cccc(C)c2nc1SCC(=O)Nc1nonc1C,6%
CCCNC(=O)C(Cc1ccc(Cl)cc1)NC(=O)c1ccc(-c2ccccc2)cc1 (stereo not given),8%
COc1ccc(OC)c(CNc2sc3c(c2C(=O)Nc2cc(OC)ccc2OC)CCCC3)c1,-5%
CC(C)c1ccc(NC(=O)CSc2n[nH]c(=O)n2-c2cccnc2)cc1,19%
COc1ccccc1/C=N/Nc1nccnc1Cl,8%
Cc1cccc(C)c1NC(=O)CN1C(=O)COc2ccccc21,-11%
CN(c1ccc(C(=O)NCCCn2ccnc2)cc1)S(C)(=O)=O,-2%
CCCOC(=O)N[C@@H]1C(=O)N2C(C(=O)OCCC)=C(C)CS[C@H]12,-29%
CO/N=C/C(C(C)=O)C(=O)Nc1ccc(Cl)cc1Cl (stereo not given),5%
COc1ccccc1N1CCN(C(=O)c2cnn(-c3ccc(C)c(C)c3)c2C2CCN(C(=O)OC(C)(C)C)CC2)CC1,4%
CCC(C)c1ccc(OCC(=O)Nc2ccc(-c3nc4ncccc4o3)cc2)cc1 (stereo not given),-17%
COc1ccc2cc(C#N)c(SCC(=O)OCc3ccccc3)nc2c1,-13%
CCC(c1nnc(SCC(=O)Nc2nnc(-c3ccccc3)o2)o1)N(C)C (stereo not given),-16%
COc1ccc(CNc2nc3c(-c4cccc(F)c4)nnn3c3ccccc23)cc1,-7%
Cc1nc(-c2ccccc2)sc1-c1ccc(SCC(=O)NCc2ccccc2Cl)nn1,9%
COc1ccc(CCNC(=O)C2CC(=O)N(C3CCCCC3)C2)cc1OC (stereo not given),-2%
O=C(NCCCN1CCN(c2ccccc2F)CC1)C1CCN(S(=O)(=O)N2CCOCC2)CC1,4%
COc1ccccc1N1CCN(c2ccc3ccccc3n2)CC1,2%
CN1C(=O)[C@@H]2[C@@H]3C[C@@H]([C@H]4ON=C(c5ccc(Cl)cc5)[C@@H]34)[C@@H]2C1=O,-12%
CC(C)Cn1c(NCCN(C)C)nc2c1c(=O)[nH]c(=O)n2C,-2%
CC(C)Cc1nc2oc3c(=O)[nH]cnc3c2c2c1CCC2,22%
Cc1cccc(NC(=O)CN2C(=O)c3ccccc3S2(=O)=O)n1,-2%
COc1cc2c(cc1OC)C1=C(C#N)CCC(=NC(=O)c3ccco3)N1CC2,5%
Oc1ccc(N=Nc2n[nH]c(-c3ccc(Br)cc3)n2)cc1,-4%
Cc1cc(C[n+]2ccsc2N)c2ncccc2c1,-14%
CCOC(=O)c1nnn(-c2nonc2-n2cccc2)c1-c1cccc([N+](=O)[O-])c1,-17%
O=C(Nc1ccccc1N1CCOCC1)C1Cc2ccccc2CN1C(=O)c1ccco1 (stereo not given),-11%
O=C1C=C(c2ccccc2)C(=O)N1Nc1ccccc1,?
CCC(C)NC(=O)Cn1ncc2c([nH]c3ccc(C)cc32)c1=O (stereo not given),-16%
CS(=O)(=O)c1ncc(CO)n1Cc1ccccc1,8%
COc1ccc(NC(C)C(=O)N/N=C/c2ccc([N+](=O)[O-])s2)cc1 (stereo not given),-6%
COc1ccccc1OCc1nc(-c2cccc([N+](=O)[O-])c2)no1,28%
CCOC(=O)[C@H]1[C@H]2COc3ccc(Br)cc3[C@@H]2N2C(=O)c3cc(OC)c(OC)cc3NC(=O)[C@@]12C,-5%
CC(C)CN(CC(C)C)S(=O)(=O)c1ccc(C(=O)Nc2sc3c(c2C(N)=O)CC(C)(C)NC3(C)C)cc1,5%
Cc1cc(NC(=O)CSc2nnnn2-c2ccc(C)c(Cl)c2)no1,63%[activator]
Cc1cc(F)ccc1NC(=O)c1cccnc1,-4%
O=C(COC(=O)c1ccc(Br)o1)c1ccc(S(=O)(=O)N2CCCCC2)cc1,1%
CC(=O)c1ccc(S(=O)(=O)NCCC(=O)OCC(=O)NCCc2ccccc2)cc1,16%

# Ordered by value in VDR inhibitor (falling): some entries from above
molecule	VDR inhibitor
CC12CCC(=O)N1C(C(=O)Nc1ccc(Cl)c(Cl)c1)CS2 (stereo not given)	10%
COc1ccc(NC(C)C(=O)N/N=C/c2ccc([N+](=O)[O-])s2)cc1 (stereo not given)	-6%
CN1CCCC(OC(=O)c2cc(Br)ccc2Cl)C1 (stereo not given)	-14%

# The listing picks up with the 2 entries that preceded the break.
SMILES,VDR inhibitor
O=C(COC(=O)c1ccc(Br)o1)c1ccc(S(=O)(=O)N2CCCCC2)cc1,1%
CC(=O)c1ccc(S(=O)(=O)NCCC(=O)OCC(=O)NCCc2ccccc2)cc1,16%
Cc1nnc(SCC(N)=O)n1CC1CCCO1 (stereo not given),2%
CCCCCCn1c(CN2CCN(C(=O)c3ccco3)CC2)nc2c1c(=O)n(C)c(=O)n2C,-19%
O=C(Cc1ccccc1)NNC(=O)Nc1ccc(Cl)c(Cl)c1,1%
Cc1nc(Oc2ccc(S(=O)(=O)N3CCOCC3)cc2Cl)c2c3c(sc2n1)CCCC3,-24%

# A portion of the library (hit frequency here may not be typical).
